Assay outcomes deposited in PubChem BioAssay by several laboratories.
ALR inh – human ALR oxidase inhibition via reduced H2O2. purified ALR, DTT oxidation, H2O2 HRP-luminol luminescence. hit rate 3.8% among 290,000. inhibition, % (concentration not given with the values). P55789;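 active = mean and each replicate at 75% or more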;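 note: stock transfer was 7.5 nL into about 7.5 µL; 0% = neutral wells and 100% = wells with inactivated enzyme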
Beta2AR agonist – human beta-2 adrenergic receptor agonism by FAP. AID 504454. hit rate 0.43% among 340,000. Am2.2-beta2AR cells, FAP receptor internalization, flow cytometry; reference of the scale not given here. response, % (no concentration beside the values). P07550;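 active = response above a set limit, near 3 SD of response in nonfluorescent compounds, cut at about 42% in these data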;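 note: stock transfer was 100 nL into about 11 µL; a reference agonist was the positive control; negative values mostly stem from fluorescent compounds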
FGF22 binding – binders of recombinant human FGF22 by thermal shift. Q9HCT0. SYPRO orange fluorescence; percent of sucrose octasulfate shift, DMSO zero. calls only at 9.99 µM. hit rate 1.5% among 340,000;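 active = melting point raised past a set limit in the mean and every replicate; three in four hits are not shown here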
Target sequence (Q9HCT0 whole entry, looked up): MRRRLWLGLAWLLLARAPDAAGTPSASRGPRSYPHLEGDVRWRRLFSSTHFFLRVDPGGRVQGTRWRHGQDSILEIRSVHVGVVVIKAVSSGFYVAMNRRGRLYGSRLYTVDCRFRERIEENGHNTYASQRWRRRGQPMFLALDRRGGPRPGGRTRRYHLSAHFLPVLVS
LANA-H2A inh – blocks KSHV LANA binding to histone H2A/H2B; Q9QR71; cell-free LANA-H2A/H2B peptide, fluorescence polarization; inhibition, % (test concentration not listed); hit rate 0.6% among 320,000; in the data active = inhibition mostly above about 10%, no sharp cut-off; inactive = mostly below about 6.7%;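 note: stock transfer was 7.5 nL into about 10 µL; 0% = median of vehicle wells and 100% = median of positive control wells; one replicate is shown; the record names a cut of 25% in any replicate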
E coli growth – inhibitors of Escherichia coli growth; AID 1053175; hit rate 0.21% among 330,000; OD600 absorbance (concentration not given with the values); OD600, 23 h; hits give low values;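 active = OD600 absorbance below the run mean of sample wells minus 3.6 SD, in any replicate, cut at about 0.56 in these data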;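 note: stock transfer was 300 nL into about 60 µL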
UCH37 inh – human UCH37 deubiquitinating enzyme inhibition; purified proteasome/UCH37, Ub-AMC cleavage fluorescence; hit rate 0.33% among 330,000; inhibition, % (test concentration not listed); Q9Y5K5;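 active = mean of two replicates above 20%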;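 note: 0% = compound-free wells with enzyme and 100% = wells lacking proteasome; stock transfer was 100 nL into about 20 µL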
Target sequence (Q9Y5K5 whole entry, looked up): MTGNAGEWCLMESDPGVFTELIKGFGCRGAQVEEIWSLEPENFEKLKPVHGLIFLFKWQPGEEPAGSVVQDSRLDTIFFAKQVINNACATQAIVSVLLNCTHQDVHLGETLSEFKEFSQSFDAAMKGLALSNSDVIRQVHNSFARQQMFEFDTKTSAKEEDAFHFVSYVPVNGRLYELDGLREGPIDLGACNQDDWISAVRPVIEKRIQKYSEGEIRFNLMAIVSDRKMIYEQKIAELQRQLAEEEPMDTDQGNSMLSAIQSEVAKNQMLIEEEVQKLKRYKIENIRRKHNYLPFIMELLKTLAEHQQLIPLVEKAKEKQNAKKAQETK
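Material: Human UCH37 enzyme supplied as purified proteasome complex | Schedule: 30 min preincubation with enzyme, 25 min cleavage at room temperature | Detection: AMC fluorescence 355/460 nm | Measure: % inhibition of Ub-AMC cleavage fluorescence | Controls: Wells without proteasome as full block, compound-free enzyme plus substrate as uninhibited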
HNF4A DNA FP – change in binding of human HNF4 alpha to DNA. P41235. HNF4a-FITC DNA binding, fluorescence polarization, 1 h. activity change, % at 10 µM. hit rate 0.3% among 360,000; in the data active = activity change above about 30%, passing the limit was not always enough;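 note: controls were the assay level and a saturating level of protein; the project sought stronger binding though the title names inhibitors; some compounds called inactive have numbers as strong as hits; positive values seem to mean higher polarization but the record does not say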
Target sequence (P41235 whole entry, looked up): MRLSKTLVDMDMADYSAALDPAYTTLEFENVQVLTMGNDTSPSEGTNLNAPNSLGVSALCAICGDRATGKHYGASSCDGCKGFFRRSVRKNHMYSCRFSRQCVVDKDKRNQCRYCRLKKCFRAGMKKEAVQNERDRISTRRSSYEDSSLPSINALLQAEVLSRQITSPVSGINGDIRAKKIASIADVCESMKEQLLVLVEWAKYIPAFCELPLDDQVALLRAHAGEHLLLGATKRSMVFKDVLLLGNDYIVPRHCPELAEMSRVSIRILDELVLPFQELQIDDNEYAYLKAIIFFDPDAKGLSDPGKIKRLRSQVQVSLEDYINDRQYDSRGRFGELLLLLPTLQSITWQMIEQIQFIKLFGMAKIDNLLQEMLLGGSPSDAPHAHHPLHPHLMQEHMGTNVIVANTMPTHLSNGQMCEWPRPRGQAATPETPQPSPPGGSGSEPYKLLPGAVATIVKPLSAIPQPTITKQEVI
An asterisk follows results filed as active. Not all compounds are listed, so the mix of outcomes need not match the whole.

CCC(=O)NC(c1cc(Cl)c2ccccc2c1O)C(C)C (centres undefined) was read as ALR inh 94.7*, Beta2AR agonist -2.7, FGF22 binding inactive, LANA-H2A inh 1.8, E coli growth 0.688, UCH37 inh 2.9 and HNF4A DNA FP 1.1.
For O=C(NCCC(=O)N1CCCC(C(F)(F)F)C1)c1ccccc1Cl (centres undefined) the results were ALR inh -2.1, Beta2AR agonist -5.6, FGF22 binding inactive, LANA-H2A inh -0.8, E coli growth 0.716, UCH37 inh 0.0 and HNF4A DNA FP -0.6.
Screening Cn1c(=O)c2c(nc(N3CCCCC3)n2CCNC2=NCCC2)n(C)c1=O returned Beta2AR agonist -1.3, LANA-H2A inh 6.1, E coli growth 0.704, UCH37 inh 2.3 and HNF4A DNA FP -2.9.
For CCOc1cc(/C=C2\C(=O)ON=C2C)ccc1OCc1ccccc1 the results were ALR inh 39.2, Beta2AR agonist 19.0, LANA-H2A inh -6.2, E coli growth 0.674, UCH37 inh -0.5 and HNF4A DNA FP -1.8.
For COc1ccc(-c2[nH]n(-c3ccc([N+](=O)[O-])cc3)c(=O)c2C=NCc2ccc(F)cc2)cc1 the results were ALR inh 1.5, Beta2AR agonist 4.0, FGF22 binding inactive, LANA-H2A inh -1.8, E coli growth 0.756, UCH37 inh 11.4 and HNF4A DNA FP 16.0.
Screening O=C(CSc1nc(C2CC2)nc2ccccc12)Nc1ccccc1 returned ALR inh -4.3, Beta2AR agonist 2.6, FGF22 binding inactive, LANA-H2A inh -0.3, E coli growth 0.675, UCH37 inh 1.1 and HNF4A DNA FP 3.2.
Screening CCN(CC)c1ccc(/C=N/NC(=S)NCc2ccco2)cc1 returned ALR inh 98.6*, Beta2AR agonist -6.0, FGF22 binding inactive, LANA-H2A inh 0.2 and HNF4A DNA FP 3.5.
For COc1ccc(C(=O)NN/C(C)=C/C(=O)C(F)(F)C(F)(F)C(F)(F)F)cc1 the results were ALR inh 9.6, Beta2AR agonist 5.0, FGF22 binding inactive, LANA-H2A inh 3.2, E coli growth 0.68, UCH37 inh 7.7 and HNF4A DNA FP 1.6.
Screening COc1ccc(S(=O)(=O)Nc2ccccn2)cc1C(=O)Nc1ccccc1 returned ALR inh -9.9, Beta2AR agonist 7.8, FGF22 binding inactive, LANA-H2A inh 5.4, E coli growth 0.7, UCH37 inh -28.1 and HNF4A DNA FP -5.3.
`CC(=O)Nc1ccc(S(=O)(=O)Nc2ccc3c(c2)C(=O)OC3)cc1` gave ALR inh 6.8, LANA-H2A inh 8.5, E coli growth 0.676 and UCH37 inh 2.7.
Screening NC(=O)NC(=O)CSc1nc2sc(-c3ccccc3)cc2c(=O)n1-c1ccccc1 returned Beta2AR agonist -4.6, FGF22 binding inactive, LANA-H2A inh 5.2, E coli growth 0.691, UCH37 inh -17.3 and HNF4A DNA FP -1.6.
Screening CN(C)c1ccc(C2CC(=O)OC3=C2C(=O)CC(C)(C)C3)cc1 (centres undefined) returned ALR inh 98.7*, Beta2AR agonist -6.3, FGF22 binding inactive, LANA-H2A inh 2.2, E coli growth 0.687, UCH37 inh 0.4 and HNF4A DNA FP -3.5.
`CCN(CC)CCN(C(=O)c1ccc(C(=O)c2ccccc2)cc1)c1nc2c(OC)cccc2s1` gave ALR inh -7.3, Beta2AR agonist 8.0, FGF22 binding inactive, LANA-H2A inh -4.8, E coli growth 0.724, UCH37 inh 3.0 and HNF4A DNA FP 2.8.
Screening Cc1ccc(-n2nc(C)c(NC(=O)CCl)c2C)cc1 returned ALR inh 56.1, Beta2AR agonist 3.2, LANA-H2A inh 2.7, E coli growth 0.657, UCH37 inh 3.1 and HNF4A DNA FP 0.3.
`CS(=O)(=O)Nc1ccc(S(=O)(=O)N2CCCCCC2)cc1` gave ALR inh -2.4, Beta2AR agonist -8.5, FGF22 binding inactive, LANA-H2A inh -14.2, E coli growth 0.656, UCH37 inh 2.0 and HNF4A DNA FP 1.9.
Cc1ccc(S(=O)(=O)N2CCCN(C)c3nc4ccccc4nc32)cc1 was read as Beta2AR agonist 0.3, FGF22 binding inactive, LANA-H2A inh 0.2, E coli growth 0.667, UCH37 inh -20.9 and HNF4A DNA FP 3.4.
For Cc1oc(=O)c(NC(=O)c2ccccc2)cc1C(N)=O the results were ALR inh -3.1, Beta2AR agonist -10.7, LANA-H2A inh 0.4, E coli growth 0.697, UCH37 inh 2.1 and HNF4A DNA FP -0.5.
For CCC(C)[C@H](NC(=O)[C@@H]1Cc2c([nH]c3ccccc23)C2c3ccccc3C(=O)N21)C(=O)N1CCC[C@@H]1C(=O)O (some centres undefined) the results were ALR inh 7.2, Beta2AR agonist -3.4, FGF22 binding inactive, LANA-H2A inh 7.8, E coli growth 0.721, UCH37 inh -3.4 and HNF4A DNA FP -0.7.
COc1ccc(N2CCN(C(=O)NCc3ccc(OC)c(Cl)c3)CC2)cc1 was read as ALR inh -57.8, Beta2AR agonist 1.3, FGF22 binding inactive, LANA-H2A inh 1.4, E coli growth 0.718, UCH37 inh 6.4 and HNF4A DNA FP -1.8.
`Cc1ccc(-n2c(C(C)C)nc3oc4ccccc4c(=O)c3c2=O)cc1` gave ALR inh -13.0, Beta2AR agonist 21.5, FGF22 binding inactive, LANA-H2A inh -4.5, E coli growth 0.623, UCH37 inh 3.7 and HNF4A DNA FP 13.4.
CCCn1nnc(NC(=O)c2ccco2)n1 was read as ALR inh -3.5, Beta2AR agonist 1.6, FGF22 binding inactive, LANA-H2A inh -11.6, E coli growth 0.669, UCH37 inh 1.3 and HNF4A DNA FP 0.0.
O=C1C=C(c2c(O)ccc3ccccc23)c2ccccc2C1=O was read as Beta2AR agonist 75.6*, FGF22 binding inactive and HNF4A DNA FP -1.8.
For Fc1cc(F)c(C2SCCN2C(=S)Nc2cccc(C(F)(F)F)c2)c(F)c1 (centres undefined) the results were Beta2AR agonist 16.6, FGF22 binding inactive, LANA-H2A inh -2.0, E coli growth 0.628, UCH37 inh 4.3 and HNF4A DNA FP 0.8.
`CC1(C)OC2CCN3C(C(O)COS3(=O)=O)C2O1` (centres undefined) gave ALR inh 1.6, Beta2AR agonist 1.3, FGF22 binding inactive, LANA-H2A inh 3.0, E coli growth 0.724, UCH37 inh 0.6 and HNF4A DNA FP -2.5.
`CC1(C)Oc2ccccc2OC1(O)c1ccc2ccccc2n1` (centres undefined) gave ALR inh -5.7, Beta2AR agonist 3.2, LANA-H2A inh -1.0, E coli growth 0.705, UCH37 inh 3.2 and HNF4A DNA FP -0.2.
`Cc1ccc(N(Cc2cc3ccc(C)cc3[nH]c2=O)S(C)(=O)=O)c(C)c1` gave ALR inh -4.3, Beta2AR agonist -11.8, FGF22 binding inactive, LANA-H2A inh 8.9, E coli growth 0.71, UCH37 inh 0.5 and HNF4A DNA FP 1.8.
Screening Cn1c(N)c(C(=O)COC(=O)CCCN2C(=O)c3ccccc3C2=O)c(=O)n(C)c1=O returned ALR inh -4.9, Beta2AR agonist 4.8, FGF22 binding inactive, LANA-H2A inh 1.8, E coli growth 0.746, UCH37 inh -1.0 and HNF4A DNA FP -2.0.
Cc1ccc2nc(NC(=O)c3ccc(NS(=O)(=O)c4cccs4)cc3)sc2c1 was read as Beta2AR agonist 6.6, FGF22 binding inactive, LANA-H2A inh 4.2, E coli growth 0.694, UCH37 inh -4.3 and HNF4A DNA FP 1.0.
O=C1OC(=O)c2c(Br)c(Br)c(Br)c(Br)c21 was read as ALR inh 4.6, Beta2AR agonist -3.5, FGF22 binding inactive, LANA-H2A inh 0.3, E coli growth 0.669, UCH37 inh 0.2 and HNF4A DNA FP 1.5.
For CC(C)[C@H](NC(=O)Nc1ccccc1F)C(=O)O the results were ALR inh -16.2, Beta2AR agonist 4.3, LANA-H2A inh -3.3, UCH37 inh 3.8 and HNF4A DNA FP 0.1.
COc1cc2cc(C(=O)N3CCN(Cc4ccc5c(c4)OCO5)CC3)[nH]c2cc1OC was read as ALR inh -2.9, Beta2AR agonist 5.9, FGF22 binding inactive, LANA-H2A inh 0.5, E coli growth 0.697, UCH37 inh -4.0 and HNF4A DNA FP -2.9.
Screening COc1ccc(CNC(=O)CCc2ccc(S(=O)(=O)N3CCCCCC3)cc2)cc1OC returned Beta2AR agonist 0.8, FGF22 binding inactive, E coli growth 0.72, UCH37 inh 2.0 and HNF4A DNA FP 0.9.
`O=C(c1ccc(CS(=O)(=O)c2ccc(Br)cc2)o1)N1CCN(C2CCCCC2)CC1` gave ALR inh -19.8, Beta2AR agonist -1.8, FGF22 binding inactive, LANA-H2A inh -2.1, E coli growth 0.751, UCH37 inh 2.4 and HNF4A DNA FP -3.5.
Screening Cc1cccc(OCCCn2c(=O)oc3ccccc32)c1 returned ALR inh -7.0, Beta2AR agonist 4.8, FGF22 binding inactive, LANA-H2A inh -7.9, E coli growth 0.663, UCH37 inh 3.8 and HNF4A DNA FP -0.6.
Screening Cc1ccc(S(=O)(=O)N2CCC(C(=O)NCCCN3CCOCC3)CC2)cc1C returned ALR inh 1.8, Beta2AR agonist 11.8, FGF22 binding inactive, LANA-H2A inh -0.6, E coli growth 0.63, UCH37 inh 4.3 and HNF4A DNA FP -0.1.
Screening Cc1cc(Br)ccc1NC(=O)CNC(=O)c1cnn(C)c1 returned ALR inh -1.7, Beta2AR agonist -1.3, FGF22 binding inactive, LANA-H2A inh 1.3, E coli growth 0.726, UCH37 inh 0.5 and HNF4A DNA FP -2.9.
For CC(C)[C@@H]1NC(=O)c2cc([N+](=O)[O-])cc(I)c2NCCC[C@@H](C(N)=O)NC(=O)[C@H](CO)NC1=O the results were ALR inh -10.3, FGF22 binding inactive, LANA-H2A inh 4.5 and UCH37 inh 6.5.
`COc1ccc(N=Nc2ccc(N)nc2N)cc1` gave Beta2AR agonist 1.1, FGF22 binding inactive, LANA-H2A inh -4.8 and HNF4A DNA FP 6.4.
CCN(CC)C(=O)CN(c1cccc(OC)c1)S(=O)(=O)c1ccc(C)cc1 was read as ALR inh -1.8, Beta2AR agonist 1.0, LANA-H2A inh 0.8, E coli growth 0.683, UCH37 inh 0.5 and HNF4A DNA FP 2.2.
O=[N+]([O-])c1ccc(CN2CCSCC2)cc1 was read as ALR inh 5.3, Beta2AR agonist 1.4, FGF22 binding inactive, LANA-H2A inh 3.6 and HNF4A DNA FP -1.6.

Fetched one by one from the list above (three):
For CCC(C)[C@H](NC(=O)[C@@H]1Cc2c([nH]c3ccccc23)C2c3ccccc3C(=O)N21)C(=O)N1CCC[C@@H]1C(=O)O (some centres undefined) the results were ALR inh 7.2, Beta2AR agonist -3.4, FGF22 binding inactive, LANA-H2A inh 7.8, E coli growth 0.721, UCH37 inh -3.4 and HNF4A DNA FP -0.7.
For Fc1cc(F)c(C2SCCN2C(=S)Nc2cccc(C(F)(F)F)c2)c(F)c1 (centres undefined) the results were Beta2AR agonist 16.6, FGF22 binding inactive, LANA-H2A inh -2.0, E coli growth 0.628, UCH37 inh 4.3 and HNF4A DNA FP 0.8.
`O=C(c1ccc(CS(=O)(=O)c2ccc(Br)cc2)o1)N1CCN(C2CCCCC2)CC1` gave ALR inh -19.8, Beta2AR agonist -1.8, FGF22 binding inactive, LANA-H2A inh -2.1, E coli growth 0.751, UCH37 inh 2.4 and HNF4A DNA FP -3.5.

(continued)
`O=C(Oc1ccc(-c2ccccc2)cc1)N1CCOCC1` gave ALR inh -2.5, Beta2AR agonist 0.9, LANA-H2A inh 1.5, E coli growth 0.653, UCH37 inh 5.8 and HNF4A DNA FP 1.6.
Screening CCOC(=O)C1=CN(Cc2cccc(Br)c2)S(=O)(=O)NC1C (centres undefined) returned Beta2AR agonist 3.2, FGF22 binding inactive, E coli growth 0.698, UCH37 inh 3.9 and HNF4A DNA FP 5.0.
For O=C(NCCc1ccc(Cl)cc1)C1CCN(C(=O)c2sccc2-n2cccc2)CC1 the results were ALR inh -3.2, Beta2AR agonist -4.5, LANA-H2A inh 0.5, E coli growth 0.708, UCH37 inh -1.9 and HNF4A DNA FP -1.1.
CC(CNc1nc2ccccc2n2cnnc12)c1ccccc1 (centres undefined) was read as ALR inh -6.6, Beta2AR agonist -7.3, FGF22 binding inactive, LANA-H2A inh -2.5, E coli growth 0.619, UCH37 inh -0.4 and HNF4A DNA FP -2.2.
